# Source: PubChem (several laboratories)
# RecA intein inh = blocks M. tuberculosis RecA intein splicing | P9WHJ3 | cell-free RecA intein splicing, fluorescence | inhibition, %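 (about 9 µM by stock and volumes)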 | 290,000 tested, 0.75% active | AID 2221; in the data active means inhibition above about 30%; inconclusive means no clear call, values can overlap the other calls;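 further: 0% = vehicle wells and 100% = reference inhibitor control wells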
# Target sequence (P9WHJ3 whole entry, looked up): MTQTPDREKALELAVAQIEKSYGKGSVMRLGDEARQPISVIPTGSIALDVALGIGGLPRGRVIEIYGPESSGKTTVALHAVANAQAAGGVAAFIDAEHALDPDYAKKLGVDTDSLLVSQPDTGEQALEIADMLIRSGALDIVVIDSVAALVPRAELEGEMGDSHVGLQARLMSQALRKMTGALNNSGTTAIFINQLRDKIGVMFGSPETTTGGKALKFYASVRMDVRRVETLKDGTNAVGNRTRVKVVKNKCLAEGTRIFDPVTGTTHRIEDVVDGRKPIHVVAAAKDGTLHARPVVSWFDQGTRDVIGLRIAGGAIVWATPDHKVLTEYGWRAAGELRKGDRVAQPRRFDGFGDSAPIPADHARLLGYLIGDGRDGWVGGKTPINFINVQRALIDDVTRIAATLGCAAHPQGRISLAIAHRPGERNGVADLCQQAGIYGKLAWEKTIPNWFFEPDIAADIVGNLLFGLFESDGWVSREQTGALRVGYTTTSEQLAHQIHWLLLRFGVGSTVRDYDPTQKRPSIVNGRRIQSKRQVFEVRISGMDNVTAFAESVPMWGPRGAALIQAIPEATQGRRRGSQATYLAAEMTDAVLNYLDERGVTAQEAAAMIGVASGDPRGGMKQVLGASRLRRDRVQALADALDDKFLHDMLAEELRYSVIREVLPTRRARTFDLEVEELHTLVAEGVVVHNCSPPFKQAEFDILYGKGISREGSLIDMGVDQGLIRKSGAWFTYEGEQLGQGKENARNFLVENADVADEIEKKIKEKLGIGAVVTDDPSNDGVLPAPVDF
# Mtb growth = M. tuberculosis H37Rv growth inhibitors, H37Rv strain (AID 1626); 220,000 tested, 0.95% active; inhibition, % at 10 µM; hits with a dose series show IC50 in µM; M. tuberculosis H37Rv growth inhibition; higher % means a stronger effect;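 active means confirmed in a dose series; inconclusive means inhibition above 80% but not taken into the dose series; inactive means below 80% or under 30% at every dose of the series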;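 further: bacteria incubated seven days before Alamar blue readout; 0% = bacteria only wells and 100% = bacteria with antibiotic wells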
# YopH inh = inhibitors of Yersinia enterocolitica YopH tyrosine phosphatase; inhibition, %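 (about 10 µM by stock and volumes)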; 140,000 tested, 0.16% active; fluorescence Ex485/Em525;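 active means inhibition of 50% or more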;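 further: controls were vehicle for no effect and minimum signal wells for full effect; inactives centre near -20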
# Mtb bLac sens = beta-lactam sensitization of Mtb H37Rv; M. tuberculosis H37Rv growth with meropenem, percent inhibition; hits of this screen are not shown here; inhibition, % at 25 µM; 330,000 tested, 0.27% active; AID 434955;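 active means about 74% or more and at least 40 points above the plate without the antibiotic, then above 30% in a dose series; inconclusive means first-round hits that could not be retested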;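 further: growth measured after seven days incubation then overnight dye step; 0% = bacteria only wells and 100% = bacteria with antibiotic; twin plates without the antibiotic show which effects depend on it; some results filed as inactive read as strong as hits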
# Arbovirus anti = antivirals against arbovirus infection; AID 1251; 200,000 tested, 0.37% active; inhibition, % at 10 µM; arbovirus infection cell-based antiviral screen;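 active means inhibition from about 30%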;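 further: bluetongue infection of BSR cells; cell survival read as ATP light after 72 h; 0% = infected wells without compound and 100% = uninfected wells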
# Arbovirus anti repeat = also measured in Arbovirus anti; calls as there; inhibition, %; measured here: 10K subset replicate screen; many hits read low in the repeat;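 first of two repeat runs on a subset; 0% = infected and 100% = uninfected wells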
# The depositor's hits bear a star; ? = inconclusive; / = not tested or not shown.
SMILES,RecA intein inh,Mtb growth,YopH inh,Mtb bLac sens,Arbovirus anti,others
COc1cc(-n2cnnn2)ccc1S(=O)(=O)N1CCOCC1,-3.6,0.5%,-0.2,-0.8,-2.3,
CCCCCC(=O)Nc1cccc(C2=NOC3(C2)C[C@@H](C(N)=O)N(C(=O)CC(c2ccccc2)c2ccccc2)C3)c1 (stereo partly specified),1.6,5.4%,/,/,/,
O=C(OCc1cccc(F)c1)c1cc2ccccc2cc1O,7.5,/,/,33.6,/,
O=C(NNC(=O)c1cc(Br)ccc1Cl)c1csc(N2CCOCC2)n1,-2.1,/,/,11.3,/,
COc1cc(/C=N/NC(=O)CN2CCCCC2)ccc1OCc1ccc(Br)cc1,-0.3,51.2%,-18.8,63.4,14.8,
CCCn1c(NC(=O)c2ccc(F)cc2)nc2ccccc21,-4.9,?,/,67.7,0.7,
O=C(Cc1nc(=O)c2ccccc2s1)Nc1ccccc1,-2.2,-17.5%,-33.7,5.0,-3.3,
CC1=C(C(=O)Nc2cc(C)ccn2)C(c2cnn(C)c2)C2=C(CC(c3ccccc3)CC2=O)N1 (stereo unspecified),-4.2,7.9%,0.4,-7.6,-8.1,
COCCn1c(SCC(=O)NC2CCCCC2C)nc2ccccc2c1=O (stereo unspecified),0.8,/,/,-14.1,/,
Cc1onc(-c2c(F)cccc2Cl)c1C(=O)Nc1cccc(S(=O)(=O)NC2=NCCC2)c1,-2.3,/,/,-8.0,/,
CCOC(=O)c1[nH]cnc1C(=O)NC1CCCCC1,-5.4,-2.9%,-19.9,6.3,-1.9,
COc1ccccc1Cn1c(SCC#N)nc2cc(C(=O)N3CCC4(CC3)OCCO4)ccc2c1=O,2.0,8.2%,/,7.5,-3.8,
CSc1nsc(/C=C/Nc2ccc(C)c(C)c2)c1C#N,12.7,/,/,90.1,8.4,
CCOC(=O)/C(C#N)=C1/C(=O)N(Cc2ccccc2)c2ccccc21,/,5.1%,/,/,-2.8,
COc1cc(/C=N/NC(=O)c2nnn(-c3nonc3N)c2-c2cccs2)ccc1O,-0.4,/,/,-3.1,/,
Cc1cn(S(=O)(=O)c2ccc(Br)c3ccccc23)cn1,/,-8.5%,-28.3,-8.6,1.7,
Nc1ccccc1CNc1nc(NCCO)nc2c1ncn2CCN1CCOCC1,1.2,-8.8%,/,-15.0,/,
O=S(=O)(Cc1ccccc1)N1CCCCC1,2.3,2.5%,0.7,-9.9,-0.5,
COc1ccc(CN2C(=O)c3ccccc3C(/C=N\OCc3ccc(F)cc3)C2=O)cc1 (stereo unspecified),-4.6,1.9%,59.2*,-6.0,9.8,
COC(=O)Nc1ccc(S(=O)(=O)Nc2cc(C(F)(F)F)c[nH]c2=O)cc1,-1.2,/,/,-4.4,/,
COc1ccccc1-c1noc(CCC(=O)Nc2ccccc2Cl)n1,1.2,-5.6%,-18.8,-2.8,3.1,
COC(=O)Cn1ncn2cccc2c1=O,-1.3,-7.5%,-33.2,-10.6,-3.8,
O=C(Nc1nc2cc3c(cc2s1)OCO3)C1CC1,0.1,-9.5%,/,-4.1,/,
O=C(CC1SCCNC1=O)Nc1cc(Cl)cc(Cl)c1 (stereo unspecified),0.9,0.1%,11.2,-7.7,8.6,
O=C(CSc1ccc(-c2cccnc2)nn1)N1CCCCCC1,-0.8,8.8%,/,-10.9,11.7,

# Filtered by structure: those above with bromine
SMILES,RecA intein inh,Mtb growth,YopH inh,Mtb bLac sens,Arbovirus anti,others
O=C(NNC(=O)c1cc(Br)ccc1Cl)c1csc(N2CCOCC2)n1,-2.1,/,/,11.3,/,
COc1cc(/C=N/NC(=O)CN2CCCCC2)ccc1OCc1ccc(Br)cc1,-0.3,51.2%,-18.8,63.4,14.8,
Cc1cn(S(=O)(=O)c2ccc(Br)c3ccccc23)cn1,/,-8.5%,-28.3,-8.6,1.7,

# (continued)
SMILES,RecA intein inh,Mtb growth,YopH inh,Mtb bLac sens,Arbovirus anti,others
COc1ccccc1NC(=O)CSc1nnc(Cn2cnc3ccccc32)o1,-0.7,-3.9%,/,1.0,0.6,
CCOC(=O)N1CCN(C(=O)c2ccc3ccccc3c2)CC1,-0.3,/,/,-0.6,/,
O=C(Nc1ccc(Cl)cn1)c1ccc(-c2ccc(Cl)c(Cl)c2)o1,-1.5,9.6%,6.1,-5.3,/,
CCOC(=O)N1CCC(N(CCN(C)C)C(=S)Nc2cc(Cl)ccc2C)CC1,1.0,-1.9%,/,0.8,8.4,
CCn1c(C)nc2cc(C(=O)N/N=C(\C)c3ccc(N4CCOCC4)cc3)ccc21,4.7,1.8%,/,0.1,4.0,
N/C(=N\OC(=O)c1ccco1)c1ccc(Cl)cc1,1.4,0.7%,/,2.9,-9.1,
CSC1=NC(C(Cl)(Cl)Cl)N=C(c2ccc(C)cc2)N1 (stereo unspecified),3.3,3.5%,/,4.9,-1.8,
COc1ccc(OC2C(=O)N(Cc3ccc(F)cc3)C2c2ccc(OC)c(OC)c2)cc1 (stereo unspecified),2.0,-1.8%,-10.8,-10.0,8.2,
O=S(=O)(Nc1ccc2c(c1)oc1ccccc12)N1CCCC1,7.5,-3.0%,-34.9,8.5,-9.6,
C/C(N)=C(/C#N)C(=O)COC(=O)c1cc(-c2ccc(C)cc2)nc2ccccc12,-3.0,1.6%,-37.9,-1.3,15.5,
COc1cccc(C(=O)NCCCNC(=O)c2cccc(OC)c2)c1,-1.0,/,/,-3.2,/,
CCc1cccc(C)c1NC(=O)COC(=O)Cn1c(C)csc1=O,-0.6,/,/,-8.5,/,
Cc1ccc(C)c(N(C)S(=O)(=O)c2ccc3[nH]cc(C(=O)NCCN4CCOCC4)c(=O)c3c2)c1,-1.7,6.9%,6.8,-3.9,2.5,
COc1ccc(CC(=O)Nc2ccc(-c3nnc(-c4ccccc4)o3)cc2)cc1OC,0.7,0.9%,11.1,11.6,17.1,
Cc1cccc(NS(=O)(=O)c2ccc(C3CCCCC3)cc2)n1,-4.3,-13.4%,-33.0,-9.0,9.8,
COc1ccc(CCC(=O)Nc2sccc2C#N)cc1,2.4,-2.4%,/,-1.9,1.1,
CS(=O)(=O)c1ccc(Cl)c(NC(=O)CSc2nc3ccccc3c(=O)n2Cc2ccco2)c1,-0.8,/,/,0.7,/,
Cc1ccc(S(=O)(=O)Nc2cnn(-c3ccccc3)c(=O)c2Cl)cc1,1.5,1.2%,/,-7.5,10.8,
COc1ccc(Cl)cc1NC(=O)CCc1nnc2ccc(N3CCC4(CC3)OCCO4)nn12,4.9,/,/,?,/,
COc1cc2cnncc2cc1OC,-16.6,-5.6%,-20.9,-5.2,5.2,
COc1ccccc1C(=O)N/C(=C\c1ccccc1)C(=O)NCc1ccco1,2.2,/,/,1.4,/,
CN(C)S(=O)(=O)c1cc(NC(=O)CSc2ncc(C(F)(F)F)cc2Cl)ccc1Cl,10.3,38.8%,-19.7,5.5,0.9,
O=C(O)CC(Cc1ccc(Cl)cc1)C(=O)Nc1ccccc1 (stereo unspecified),-1.8,/,/,5.2,/,
CC(C)Cn1cc(C(=O)NCCCOC(C)C)c2c3ccccc3n(C)c2c1=O,-2.6,-2.4%,-43.9,-0.2,-3.2,
Cc1ccc(NC(=O)CN2CCOCC2)c(Br)c1,-1.4,/,/,-2.9,/,
# Next section:
SMILES,RecA intein inh,Mtb growth,YopH inh,Mtb bLac sens,Arbovirus anti,others
Cc1cc(C(=O)Nc2ccc(Br)cc2)cs1,0.0,/,/,-12.1,/,
CC(C)N(C(C)C)S(=O)(=O)c1ccc(N2CCc3ccccc3C2)nc1,4.9,/,/,8.4,/,
CN1CCN(NC(=O)c2ccc(Br)c(S(=O)(=O)N3CCOCC3)c2)CC1,-3.5,-4.9%,-31.6,-0.5,10.5,
Cc1ccc(N=Cc2c(O)n(-c3cc(Cl)ccc3N3CCOCC3)c(=O)c3ccccc23)cc1C,2.0,24.4%,-17.4,73.1,4.0,
Cn1c(CSc2ccccc2)c(C#N)c2ccccc21,13.5,5.9%,-1.6,-5.0,-2.0,
CCC(=O)c1cc2c(C)cc(=O)oc2c(C)c1O,0.3,-2.2%,-13.4,-5.3,1.0,
Cc1ccc2nc(NC(=O)CN(C)S(=O)(=O)c3cccc4nsnc34)sc2c1,-1.1,-6.9%,15.6,4.6,-21.5,
CCOC(=O)C1=C(C)N=C2SC(C(=O)OC)=CC(=O)N2C1c1cccc(OC)c1 (stereo unspecified),8.3,-1.4%,-40.5,1.8,3.0,
Cc1cccc(NC(=O)CSc2ccc(C(N)=O)cc2[N+](=O)[O-])c1C,-0.6,-7.3%,-27.4,-1.6,-5.0,
CCN(CC)CCC(c1cc(OC)c(OC)c(OC)c1)c1c(O)cc(OC)cc1OC (stereo unspecified),-3.4,-12.2%,/,-1.0,/,
CSc1nc(O)c(C2OC(=O)c3ccccc32)c(=O)[nH]1 (stereo unspecified),-2.6,-4.4%,-41.9,0.3,-1.6,
CN(C)S(=O)(=O)N1CCN(C(=O)c2ccccc2)CC1,0.4,-7.8%,0.1,-4.3,7.4,
Cc1ccc(NC(=O)Cc2sc(C)nc2-c2ccc(C)cc2)cc1,2.6,5.2%,-8.5,3.4,3.2,
CCN(CC)S(=O)(=O)c1cc(C(=O)Nc2ccc(Cl)cn2)ccc1C,2.2,5.1%,-36.8,-3.2,-16.4,Arbovirus anti repeat=-14.3
COc1ccccc1OCC(=O)NCC1CCCCC1,/,-8.6%,-2.7,-2.8,0.7,
C[C@H](NC(=O)C1CC(=O)N(c2ccc3c(c2)OCCO3)C1)C(=O)N1CCCCC1 (stereo partly specified),-1.9,/,/,-1.6,/,
COc1ccc(C2N(Cc3ccccc3)CCN2Cc2ccccc2)cc1[N+](=O)[O-],-1.1,-0.8%,/,83.7,-5.7,
O=C(COC(=O)Cc1cccc(C(F)(F)F)c1)Nc1ccc2c(c1)OCCO2,0.2,3.5%,-11.0,2.0,-4.8,
COc1cccc(C(=O)OCC(=O)c2c[nH]c3ccccc23)c1O,-1.1,7.3%,/,-5.5,-2.0,
COc1ccccc1CN1C(=O)[C@H]2Cc3c([nH]c4ccccc34)C(C)(C)N2C1=O,2.7,-1.7%,/,0.1,/,
O=c1c(=NNc2ccccc2Cl)c(=O)c2ccccc12,/,4.2%,-18.5,/,-9.2,
Cc1nnc(Nc2ccc(C(=O)NCCO)cc2)c2ccccc12,3.4,-11.6%,-30.3,-6.8,-1.4,
CS(=O)(=O)CCC(C(=O)O)N1C(=O)c2ccc(Oc3ccc(Cl)cc3)cc2C1=O (stereo unspecified),-4.1,/,/,10.8,/,
COc1ccc(N2C(=NC(=O)CCC3CCCC3)SC3CS(=O)(=O)CC32)cc1 (stereo unspecified),-6.0,/,/,-0.9,/,
Cc1ccccc1C(=O)NC(CC(C)C)C(=O)N1CCN(c2ccccc2)CC1 (stereo unspecified),1.0,/,/,1.1,/,

# Three records picked at random from those above, as already listed:
SMILES,RecA intein inh,Mtb growth,YopH inh,Mtb bLac sens,Arbovirus anti,others
CCCn1c(NC(=O)c2ccc(F)cc2)nc2ccccc21,-4.9,?,/,67.7,0.7,
COc1ccccc1OCC(=O)NCC1CCCCC1,/,-8.6%,-2.7,-2.8,0.7,
CC(C)N(C(C)C)S(=O)(=O)c1ccc(N2CCc3ccccc3C2)nc1,4.9,/,/,8.4,/,

# (further entries)
SMILES,RecA intein inh,Mtb growth,YopH inh,Mtb bLac sens,Arbovirus anti,others
CCCOc1ccc(-c2nnc(N)s2)cc1,2.4,1.4%,38.0,-2.7,-1.4,
CCOC(=O)C1CCN(CC(=O)Nc2cc(S(=O)(=O)N3CCOCC3)ccc2C)CC1,-1.9,0.6%,/,-10.8,5.0,
Cc1ccccc1OCCNCC(C)O (stereo unspecified),-1.9,-2.9%,/,-2.3,-2.2,
Cc1cc([N+](=O)[O-])nn1CCCC(=O)N1CCN(c2ccc(F)cc2)CC1,1.2,-4.7%,-27.7,0.6,-1.8,
C=CCNC(=O)/C=C/c1cccs1,0.8,7.9%,/,-5.1,9.2,
CS/C(N)=N/N=C/c1c(O)ccc2ccccc12,-4.9,4.2%,/,95.3,/,
Cc1ccc(C)c(SCC(=O)NCc2ccco2)c1,4.8,-1.2%,-1.7,3.4,-1.5,
Nn1c(SCC(=O)Nc2ccc3c(c2)OCO3)nnc1-c1cccc(Cl)c1,-1.5,-0.5%,-6.3,-11.0,4.7,
CCCCC(C(=O)OCC(=O)c1ccc(OC)cc1)N1C(=O)c2ccccc2C1=O (stereo unspecified),2.2,-6.5%,-11.3,4.3,-1.9,
COC(=O)c1ccc(OC(=O)c2cccnc2)cc1,1.9,6.9%,-26.2,-2.7,-4.5,
Cc1c(NC(=O)CN2CCN(C(=O)c3ccco3)CC2)c(=O)n(-c2ccccc2)n1C,-0.3,3.2%,-21.1,/,-2.8,

# Only part of the results is shown; rates above refer to the full screens.
